RN4220 kill = S. aureus RN4220 growth inhibition | AID 1259311 | OD600, 16 h | actives 0.33% (n = 330,000) | inhibition, % (test concentration not listed);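 active means z-score of -3 or lower and OD600 up to 0.18 on both plates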;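 further: plate controls were untreated cells for no effect and reference antibiotic for full effect; stock transfer was 100 nL into about 80 µL; one replicate is shown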
Autofluor counter = flagged as autofluorescent in microsphere protease counterscreen; AID 624483; fluorescence intensity (no concentration beside the values); compound autofluorescence counterscreen, microsphere flow cytometry; stronger effect = higher value; actives 3.1% (n = 360,000);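 active means at least 3 SD above the mean of all compounds, about 16000 in these data; inconclusive means too few beads counted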;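 further: 100 nL of 1 mM stock went into each well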
PrP UTR inh = inhibition of PrP 5' UTR reporter expression | inhibition, % (test concentration not listed) | cell-based PrP 5' UTR mRNA reporter, plate reader | AID 488862 | actives 0.35% (n = 340,000);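 active means every replicate at 50% or more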;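 further: 0 = median of the neutral control wells; tested in H4 reporter cells; numbers are from one replicate; inactives centre near -14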
Mtb hypoxia inh = inhibitors of hypoxia-regulated fluorescent reporter in Mycobacterium tuberculosis. actives 0.1% (n = 300,000). AID 1159583. fluorescence inhibition, % (no concentration beside the values). M. tuberculosis hypoxia-regulated fluorescent reporter, fluorescence;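 active means 35 to 45% if threefold the growth effect, above 45% if 1.5-fold the growth effect; inactive means the rest, general growth blockers included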;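 further: wells of about 50 µL received 100 nL stock; 0% = vehicle wells and 100% = reference inhibitor wells; whole bacteria with a GFP reporter of the hypoxia response; strong numbers were not always called active; many hits fall short of the cut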
ugtP null kill = growth inhibition of S. aureus ugtP deletion strain; actives 0.54% (n = 330,000); AID 1259309; S. aureus RN4220 ugtP deletion, OD600 growth, 16 h; some inactives read as strong as hits; growth inhibition, % (no concentration beside the values);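 active means z-score under -3 and OD600 up to 0.15 on both plates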;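 further: plate controls were untreated wells for no effect and antibiotic for full effect; wells of about 80 µL received 100 nL stock; the first replicate is given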
BJeLR lethal = BJeLR cell viability loss. BJeLR (HRASV12) viability, CellTiter-Glo ATP luminescence, 48 h; reference of the scale not given here. inhibition, % (no concentration beside the values). actives 0.17% (n = 300,000);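 active means replicate mean above 50%; inconclusive means above 50% but judged a plate artefact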;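 further: 50 nL library stock added to about 25 µL; numbers are from one replicate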
Mtb hypoxia inh growth = further read-out of Mtb hypoxia inh, marked with its call; growth inhibition, %; measured here: M. tuberculosis growth (absorbance);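 0% = vehicle and 100% = reference antibiotic; read after six days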
Numbers without * were called inactive; ? = inconclusive; . = no result given; & = joins results of further samples.

SMILES	RN4220 kill	Autofluor counter	PrP UTR inh	Mtb hypoxia inh	Mtb hypoxia inh growth	ugtP null kill	BJeLR lethal
O=C(c1ccc(Cl)cc1)N1CCN(CCOc2ccccc2)CC1	-8.2	3626	25	13	1	25	-1
Cc1ccnc2nc(C(=O)OCC(=O)NC3CCCC(C)C3C)nn12 (configuration not stated)	2.8	4661	8	6	0	-3	.
COc1ccc(COc2ncnc3ccc(Br)cc23)cc1F	-2.5	5686	-15	-5	8	1	-14
Cc1ccc(CN=c2c([N+](=O)[O-])nn(-c3ccc(Cl)cc3)n2O)cc1	-4.4	3862	.	14	9	-2	26
O=C(COc1ncnc2ccccc12)NCc1ccco1	3.2	3730	-10	1	2	2	-4
COc1ccc(C(=O)C(C)Sc2nnc(C3CC3)n2C2CC2)cc1 (configuration not stated)	2.1	5710	-10	7	6	3	.
O=C(NCc1cccnc1)C(=O)Nc1nccs1	0.5	.	.	-1	9	10	-2
O=C(COC(=O)c1cccc(S(=O)(=O)N2CCc3ccccc32)c1)NC1CCS(=O)(=O)C1 (configuration not stated)	7.2	3298	-11	6	4	5	7
Cc1c(/C=C2\NC(=O)NC2=O)c2ccccc2n1C	0.8	3936	-12	-10	5	2	-14
Cc1csc(CNc2ncnc3ccc(-c4cccc(Cl)c4)cc23)c1	-13	2952	-25	10	9	-44	.
O=C1C=C(c2ccc3ncccc3c2)CC(c2ccc(Cl)cc2)C1 (configuration not stated)	-0.6	.	.	-3	0	14	.
CNc1ccc(S(=O)(=O)NCC(=O)OCC(=O)Nc2cccc(Cl)c2Cl)cc1[N+](=O)[O-]	8.2	1969	-22	19	9	-1	-10
COC(=O)c1ccc(Cn2c(C)cc(C)[n+]2C)o1	2.9	4745	-14	.	.	3	23
CCOc1cc(C2C(C(=O)OC)=CN(C3CCCC3)C=C2C(=O)OC)cc(Br)c1O	6.2	8953	1	-1	4	9	-13
CCOc1cccc(/C=N/NC(=S)Nc2cc(S(=O)(=O)N3CCOCC3)ccc2N2CCOCC2)c1O	.	2405	16	.	.	.	-6
O=C(CCn1cnc2ccccc21)NN=Cc1ccc(O)cc1	0.4	.	.	-3	-1	-5	.
Cc1nc([N+](=O)[O-])c(Br)n1CC(=O)c1ccc(F)cc1	8.2	5919	-9	.	.	6	.
NS(=O)(=O)c1ccc(CCNC(=O)c2cc([N+](=O)[O-])ccc2N2CCOCC2)cc1	-4.6	?	0	-8	10	-6	.
C[C@H]1CN(Cc2ccccc2)C(=O)[C@@H]1CC(=O)NCc1ccccc1	.	3414	-17	.	.	.	0
CCCCn1c(C2CCCCC2)nc2cc3[nH]c(=O)c(C(C)C)nc3cc21	5.2	4082	-33	13	11	-2	-1
CCOC(=O)C(C(=O)OCC)C1CS(=O)(=O)CC1C(C(=O)OCC)C(=O)OCC (configuration not stated)	4.4	2333	-4	.	.	8	-6
CC(=O)c1cc(C#N)c(N2CCCCC2)nc1C	7.5	3241	-17	-1	5	-1	-4
CCOC(=O)N1CCC(NC(=O)C2CCN(C(=O)N3CCOc4ccccc43)CC2)CC1	5.5	4443	-57	4	4	4	0
O=C(O)c1ccccc1C(=O)c1cccc2ccccc12	9.2	3723	-25	7	3	6	0
COc1ccc(C2NC(=O)CCC2[N+](=O)[O-])c(OC)c1OC (configuration not stated)	2.3	3549	-7	7	0	1	-25
Continued.
SMILES	RN4220 kill	Autofluor counter	PrP UTR inh	Mtb hypoxia inh	Mtb hypoxia inh growth	ugtP null kill	BJeLR lethal
CCOC(=O)C1=C(C)OC(N)=C(C#N)C1c1cc2c(cc1Br)OCO2 (configuration not stated)	-4.3	3103	-1	-1	-13	-7	6
Cc1ccc2nc(-c3ccc(-c4cccc(Cl)c4)cc3)c(NCc3ccccc3)n2c1	4.4	2880	3	10	0	-31	-7
Cc1c(C(=O)Nc2ccncc2)sc2nc(-c3ccccc3)cn12	-11	6522	-32	10	4	-11	13
NC1=NC2(CCCCC2)N=C(Nc2ccc(F)cc2F)N1	1.4	24883*	-21	-10	1	1	-9
CC(C)n1cnc2c(Nc3cccc(F)c3)nc(NCCO)nc21	5.2	4155	-6	2	10	-13	-10
COc1cc2cnc(-c3ccsc3)cc2cc1OC	19	3800	-7	4	2	-21	.
CCOc1ccccc1N1CC(C(=O)N2CCc3ccccc32)CC1=O (configuration not stated)	-8.9	3083	-14	16	16	0	7
Cc1ccc(N(CC(=O)NC2CCCCC2C)S(=O)(=O)c2c(C)nn(C)c2C)cc1 (configuration not stated)	2.9	5482	-8	8	3	-3	-3
Cc1cccn2c(=O)nc(SCC(=O)N3CC(C)OC(C)C3)nc12 (configuration not stated)	3.8	?	0	-4	-6	7	3
Cc1cc(NC(=O)c2noc3c2CCCC3)nn1Cc1ccc(Cl)cc1	-4.9	15585	-31	2	-1	-14	4
Cc1sc2ncnc(N3CCC(C(=O)Nc4ccc(C#N)c(Cl)c4)CC3)c2c1C	.	6143	-7	.	.	.	0
Cc1ccc(OCC(=O)Nc2ccc(C)c(S(=O)(=O)N3CCCCCC3)c2)c([N+](=O)[O-])n1	4.8	2971	3	11	3	-67	-21
CSc1nnc(C)c(=O)n1COC(=O)COc1ccccc1C	4.7	1961	-8	1	3	4	-14
COc1ccc(-c2nn3c(-c4ccccn4)nnc3s2)cc1OC	2.3	19421*	5	1	-4	-1	-3
C1CN(CC23CC4CC(CC(C4)C2)C3)CCO1	17	2304	-5	6	1	13	1
CCCSc1ncccc1C(=O)O	2.7	6066	-14	6	-4	5	-8
Cc1ccc(N2C(=O)CC(N3CCN(S(=O)(=O)c4ccccc4)CC3)C2=O)c(C)c1 (configuration not stated)	4.5	5645	-6	6	3	5	-16
O=C(OCC(=O)N1CCN(C(=O)c2ccco2)CC1)c1ccccc1C(=O)c1ccc(Cl)cc1	3.4	9222	-18	18	5	12	0
CC1(C)NC(=O)N(CC(=O)N2CCN(c3cccc(C(F)(F)F)c3)CC2)C1=O	3.0	6917	-12	6	15	1	-16
Cc1cc(C)cc(NC(=O)Nc2ccc(-n3ccc(C(F)(F)F)n3)cc2)c1	-9.7	3592	-36	10	16	-22	-1
COC(=O)c1c(NC(=O)CN2CCN(c3ccccc3Cl)CC2)sc(C)c1C	2.5	2592	-7	9	7	-1	0
COC(=O)[C@H](C)NC(=O)NC1CCN(Cc2ccccc2)CC1	-0.2	8151	-1	-9	-13	3	-4
CCCCCc1cc(O)c2c3c(c(=O)oc2c1)CN(C)CC3	-0.8	4640	-4	18	25	11	-5
C#CCOCCOCCOCCNc1nc(N2CCOCC2)nc(N2CCN(C(=O)C(CCCCN)n3cc(C(N)CO)nn3)CC2)n1 (configuration not stated)	7.9	.	.	5	0	0	.
Cc1ccccc1NS(=O)(=O)c1ccc(C(=O)N2CCN(c3ccccc3O)CC2)cc1	4.8	5650	-7	4	0	-2	-9
More structures.
SMILES	RN4220 kill	Autofluor counter	PrP UTR inh	Mtb hypoxia inh	Mtb hypoxia inh growth	ugtP null kill	BJeLR lethal
Cc1noc(C)c1COc1ccc(C(=O)OCC(=O)c2ccc3c(c2)OCCO3)cc1	6.1	3393	-4	.	.	1	5
Clc1ccc2[nH]c3c(NCCN4CCOCC4)ncnc3c2c1	9.2	4307	-8	.	.	9	-4
Fc1ccc(-c2nc(-c3cccs3)no2)cc1	0.6	.	-128	-5	7	-7	3
CCCCCCC1CCC(C(=O)N2CCOCC2)CC1 (configuration not stated)	8.3	3153	-71	15	22	-3	-8
CC(NC(=O)CSc1ncnc2nc[nH]c12)c1ccccc1 (configuration not stated)	7.4	21770*	-18	10	18	-1	0
OC(c1ccccc1)(c1ccccc1)C1CN2CCC1CC2 (configuration not stated)	-4.2	2169	-17	10	3	4	-5
O=S1(=O)CCOCC(c2ccccc2)N1Cc1ccccc1F (configuration not stated)	-1.4	.	.	2	-1	-6	.
Oc1ccccc1CNc1ncc(Br)cc1Br	-2.9	2244	-17	6	-1	-6	4
O=C1CC(C(=O)NCc2ccccc2)C2(CCCC2)O1 (configuration not stated)	5.6	8074	-23	2	3	1	0
Cc1ccc([N+](=O)[O-])c2c1C(N1CCCC1)C(C)(C)O2 (configuration not stated)	-3.2	8017	-22	-5	0	10	2
CC(C)(O)C(=O)NNC(=S)Nc1ccc(F)c(Cl)c1	2.6	2001	-20	5	7	-2	4
COc1cccc(C2=NOC(C(=O)NCc3cccnc3)C2)c1 (configuration not stated)	3.0	3388	-16	-2	1	10	5
Cc1ccc(NC(=O)C2C3C=CC4(O3)C2C(=O)N(CCCN2CCCC(C)C2)C4C(=O)NC2CCCCC2)cc1 (configuration not stated)	2.5	3280	-32	1	-4	10	-5
Cc1cc(C)cc(C(=O)NCC(=O)OCc2cc([N+](=O)[O-])cc3c2OCOC3)c1	5.4	2275	-17	6	-2	-6	-4
O=C(NN1CCOCC1)c1cccc(Cl)c1	1.5	4662	-3	7	4	-2	-9
COc1ccc(N=C(N(C)C)P(=O)(N(C)C)N(C)C)cc1	6.3&0.8	3759&4150	-11&-9	7	8	7&4	-11
O=C(CCn1ccc2cc(S(=O)(=O)N3CCCC3)ccc21)NCc1cccc(F)c1	5.5	4184	-24	0	-9	11	-10
CCOC(=O)Nc1ccc2c(c1)nc(CN1CCOCC1)n2C	-0.3	2764	-8	.	.	1	1
CC/C(=N\NC(=O)c1nnn(-c2nonc2N)c1CN(C)c1ccccc1)c1ccccc1	.	5260	0	.	.	.	5
CN(CC(=O)Nc1ccc(F)cc1)C(=O)COC(=O)/C=C/c1cccs1	2.5	4451	-113	6	-8	8	-4
O=C(NNC(=O)c1cnccc1C(F)(F)F)c1ccc(Cl)cc1	36	5927	-8	-6	9	9	-5
Cc1ccc(CN2C(=O)CCC2C(=O)NCCCN2CCC(C)CC2)cc1 (configuration not stated)	-13	3318	-8	-1	1	4	-15
O=C1NN(c2cccc(Br)c2)C(=O)/C1=C/c1ccc(-c2cc([N+](=O)[O-])ccc2O)o1	2.0	4447	-16	6	-3	12	-13
CCOC(=O)C1SC2(C(F)F)CC1(O)c1c(c(OC)c3occc3c1OC)O2 (configuration not stated)	-0.9	7035	-22	8	0	-6	1
CC(C)(C)c1ccc(-c2nnc(SCCN3C(=O)c4ccccc4C3=O)o2)cc1	4.2	5782	-9	.	.	4	-3

Pulled by structure from the entries so far, seven records:
SMILES	RN4220 kill	Autofluor counter	PrP UTR inh	Mtb hypoxia inh	Mtb hypoxia inh growth	ugtP null kill	BJeLR lethal
COc1cccc(C2=NOC(C(=O)NCc3cccnc3)C2)c1 (configuration not stated)	3.0	3388	-16	-2	1	10	5
O=C(NN1CCOCC1)c1cccc(Cl)c1	1.5	4662	-3	7	4	-2	-9
Clc1ccc2[nH]c3c(NCCN4CCOCC4)ncnc3c2c1	9.2	4307	-8	.	.	9	-4
COc1ccc(N=C(N(C)C)P(=O)(N(C)C)N(C)C)cc1	6.3&0.8	3759&4150	-11&-9	7	8	7&4	-11
O=C(NNC(=O)c1cnccc1C(F)(F)F)c1ccc(Cl)cc1	36	5927	-8	-6	9	9	-5
CCOC(=O)C1SC2(C(F)F)CC1(O)c1c(c(OC)c3occc3c1OC)O2 (configuration not stated)	-0.9	7035	-22	8	0	-6	1
CN(CC(=O)Nc1ccc(F)cc1)C(=O)COC(=O)/C=C/c1cccs1	2.5	4451	-113	6	-8	8	-4

(continued)
SMILES	RN4220 kill	Autofluor counter	PrP UTR inh	Mtb hypoxia inh	Mtb hypoxia inh growth	ugtP null kill	BJeLR lethal
CCN(C[C@H]1N[C@@](CC)(C(=O)OC)[C@H]2C(=O)N(C)C(=O)[C@@H]12)C(C)=O	0.3	3813	0	-5	3	-1	.
COc1ccc(C2=NCCNC(C(F)(F)F)=C2)cc1	4.0	3436	6	2	6	2	2
CCOC(=O)CSc1nnc(CNC(=O)Cc2ccccc2)n1-c1ccccc1OC	1.5	11008	-8	2	4	3	.
O=C(O)C(=O)/C(=C\c1ccc([N+](=O)[O-])cc1)c1ccc2ccccc2n1	13	6380	-73	-2	8	1	5
CCOC(=O)Cc1csc(NC(=O)c2ccoc2C)n1	-0.8	23823*	-21	-2	9	-3	.
O=C(Nc1cccc(S(=O)(=O)N2CCCCC2)c1)c1cc([N+](=O)[O-])ccc1N1CCOCC1	1.3	?	6	-3	8	-6	4
CCn1nc(C)cc1C(=O)NC1CCCc2c1cnn2-c1cc(F)cc(F)c1 (configuration not stated)	4.3	4913	-18	16	12	-1	3
Cc1ccc(S(=O)(=O)NCC(=O)OCC(=O)N2CCc3ccccc32)cc1	2.7	2465	-4	6	8	0	1
CCCn1nc(C(=O)Nc2ccc3nc(N4CCOCC4)sc3c2)ccc1=O	-1.0	.	3	-5	6	-6	.
